# High-throughput results (PubChem BioAssay)
# Vaccinia mCherry: qHTS for Stage-Specific Inhibitors of Vaccinia Orthopoxvirus: mCherry Reporter Primary qHTS. AID 720579, 2013. 310,000 tested, 0.63% active. Potency, µM (series often up to 36.5 µM), without a hit: at the top dose activity change, negative = inhibition, hits mostly inhibitors. Vaccinia virus mCherry reporter infection, fluorescence; about a quarter of the inactives have no number; active = well fitted inhibition curve with a large enough effect; inconclusive = small, poorly fitted or top-dose-only effect; inactive = no such curve, though single readings can be large or run the other way; tested in A549 cells; note: nearly all actives have a fitted effect of over 35% in size; inactives centre near -10
# VACV Venus inh: qHTS for Stage-Specific Inhibitors of Vaccinia Orthopoxvirus: Venus Reporter Primary qHTS. AID 720580, 2013. Vaccinia virus Venus reporter expression, fluorescence. Potency, µM (doses to about 36.5 µM), inactives show top-dose activity change, negative = inhibition, most hits filed as inhibitors. 330,000 tested, 0.46% active; active means well fitted inhibition curve with a large enough effect; inconclusive means small, poorly fitted or top-dose-only effect; inactive means no such curve, though single readings can be large or run the other way; tested in A549 cells; note: nearly all actives have a fitted effect of over 30% in size; inactives centre near -10
# * hit, by the source's call; i = inactive; u = inconclusive; x = not tested or not shown; & = joins results of further samples; [ ] = dose if it differs, or a comment. % is set by controls: 0 for no effect and ±100 for the full control effect; potency is the fitted concentration of half-maximal effect.
SMILES	Vaccinia mCherry	VACV Venus inh
Cn1c(N)c(Sc2ccc(F)cc2)c(=O)n(C)c1=O	i	-20%
O=C(NCC1COc2ccccc2O1)C1CCN(S(=O)(=O)c2cccc3nsnc23)CC1 (stereo not drawn)	i	-20%
OCc1ccccc1-c1cccc2nccn12	9%	14%
O=C1C(Br)C2CCC1C2C(=O)O (stereo not drawn)	i	-7%
Cc1ccccc1C(=O)c1c[nH]c(C(=O)N=CN(C)C)c1	-9%	-4%
CCOC(=O)c1scc(-c2ccc(C)cc2)c1S(=O)(=O)N1CCN(c2ccccc2)CC1	-12%	0%
CCOC1=C2[C@H](c3ccccc3)N(S(=O)(=O)c3ccc(C)cc3)C[C@H]2n2c(=O)n(-c3ccccc3)c(=O)n2C1	20%	-4%
CCCSc1nnc2n(-c3ccccc3OC)c(=O)c3c4c(sc3n12)CCC4	x	-3%
O=C(Cn1c(S(=O)(=O)Cc2ccccc2)nc2ccccc21)N1CCCCC1	u	-9%
CO/N=C/C(C#N)=C/c1ccc(OC)cc1	i	-4%
COc1ccc(NS(=O)(=O)c2cc(C(=O)N3CCN(C/C=C/c4ccccc4)CC3)ccc2C)cc1	-12%	-22%
Cc1cc(=O)c(C(=O)Nc2cccc(C(=O)NC3CC3)c2)nn1-c1ccccc1	-7%	-18%
O=C(Nc1ccc(Cl)cn1)c1cccc(S(=O)(=O)N2CCCCCC2)c1	u	-26%
COC(=O)CNC(=O)COc1ccccc1	-12%	-3%
Cc1ccc(-c2cc(C(=O)N3CCN(C(=O)c4ccco4)CC3)[nH]n2)cc1C	-3%	-5%
CC(NC(=O)c1ccccc1Br)C1CC2CCC1C2 (stereo not drawn)	-10%	2%
O=C1CN(C(=O)OCc2ccccc2)c2ccccc2N1	-10%	-8%
CCOc1ccccc1CNC(=O)CCCN1C(=O)c2cccnc2Oc2ccc(Cl)cc21	-5%	-8%
Cc1cc(C(=O)N2CCOCC2)ccc1[N+](=O)[O-]	0%	3%
CC(=O)N1CCN(C(=O)COC(=O)c2ccc(S(C)(=O)=O)cc2)CC1	-18%	-7%
COc1ccc(-c2cc(C(=O)N3CCCCC3)c3ccccc3n2)cc1	-15%	-7%
O=C(NCC(c1cccnc1)N1CCc2ccccc21)c1ccc(F)c(F)c1 (stereo not drawn)	-15%	-10%
COc1ccc(/C=C(\C#N)C(=O)OCC(=O)NCc2ccco2)cc1	-15%	-10%
O=C(c1cccc([N+](=O)[O-])c1)N1CCN(Cc2ccc3c(c2)OCO3)CC1	-5%	0%
C/C=C/C(=O)OCc1csc(CC(=O)Nc2ccccc2C)n1	5µM*	u
COc1cc2nc(NCCCN3CCN(C)CC3)n3nc(-c4ccccc4)nc3c2cc1OC	-8%	u
CCOc1ccc(OCC(=O)Nc2ccc(S(=O)(=O)Nc3cc(C)nc(C)n3)cc2)cc1	x	0%
Cc1cccc(N(CC(=O)NCc2ccco2)C(=O)CCC(=O)Nc2ccccn2)c1	10%	10%
CCCCCCCCCCSc1n[nH]c(N)n1	i	-8%
Cc1cccc(CCNC(=O)CC2C(=O)NCCN2Cc2ccccc2C)n1 (stereo not drawn)	i	-6%
COc1cc(C2CC(=O)c3cnc(N4CCN(CCO)CC4)nc3C2)cc(OC)c1OC (stereo not drawn)	-5%	2%
CCN(CC)C(=O)CSc1ccccc1N	x	-10%
COc1ccc(Cl)cc1NC(=O)Cn1cnc2c1c(=O)n(C)c(=O)n2C	-9%	2%
O=[n+]1cc(-c2ccccc2)n([O-])c2c1CCCCC2	-11%	-4%
CN(C)S(=O)(=O)c1ccc(N2CCCC2)c(C(=O)NNC(=O)COc2ccccc2F)c1	-10%	-12%
O=C(CCn1cccc1)NCc1ccc2c(c1)OCO2	x	0%
CCN(C[C@H]1N[C@@](CC)(C(=O)OC)[C@H]2C(=O)N(C)C(=O)[C@@H]12)C(=O)COc1ccccc1	-9%	-5%
Cc1c(C(=O)N2CCN(c3ccccc3F)CC2)sc2ncn(CC(=O)N3CCOCC3)c(=O)c12	i	-11%
CN1CCN(C(=O)c2cc(-c3cccc(Cl)c3)on2)CC1	-11%	-5%
CCOC(=O)N1CCN(C(=O)c2cc3n(n2)C(C(F)(F)F)CC(c2ccc4c(c2)OCO4)N3)CC1 (stereo not drawn)	-3%	-30%
COc1ccccc1NC1=C(C)C(=O)CC1	-13%	-5%
Cc1ccc(Oc2c(CO)c(-c3ccccc3)nn2C)cc1	i	-23%
COc1ccccc1C(=O)Oc1c(Sc2ccccc2)c(C)nn1-c1ccccc1	u	u
O=C(NCCC1=CCCCC1)C(=O)NCC1OCCCN1S(=O)(=O)c1ccc(F)cc1 (stereo not drawn)	-2%	-21%
CCOC(=O)N/N=C/c1cn(Cc2ccccc2Cl)c2ccccc12	-12%	-19%
CCOC(=O)c1cnn(-c2ccc(OC)cc2)c1C1CCN(C(=O)OC(C)(C)C)CC1	-18%	-12%
Cc1oc(-c2ccccc2Cl)nc1CS(=O)CC(=O)NCc1ccccc1Cl (stereo not drawn)	-15%&-10%	1%&-8%
CCOC(=O)c1c(C)[nH]c(C(=O)C(C)Cl)c1C (stereo not drawn)	u	u
Cc1cc2c(c(=O)n1C)C(C(C)C)C(C#N)=C(N)O2 (stereo not drawn)	i	-9%
O=C(Nc1ccc2ccccc2c1)[C@@H]1C[C@H]1[C@@H](NP(=O)(c1ccccc1)c1ccccc1)c1ccccc1	i	-27%

# (continued)
SMILES	Vaccinia mCherry	VACV Venus inh
CCC(=O)Oc1ccc2c(C)cc(=O)oc2c1C	x	-11%
Cc1nn(-c2ccccc2)c2nc(-c3ccccc3)cc(C(=O)N3CCOCC3)c12	-7%	-13%
CCOc1cc(CNCCSc2nnnn2-c2ccccc2)cc(Cl)c1OC	-8%	-18%
Cc1ccc(CCNC(=O)Cc2ccc(NC3=NC4CS(=O)(=O)CC4S3)cc2)cc1 (stereo not drawn)	-22%	0%
O=C(CN(Cc1ccc(Cl)cc1)C(=O)CNS(=O)(=O)c1ccc(F)cc1)NCC1CCCO1 (stereo not drawn)	i	-13%
O=C(c1cc(COc2ccc(F)cc2Cl)on1)N1CCC(OCc2cccnc2)CC1	-8%	-4%
Cc1cc(C)cc(NC(=O)C(OC(=O)C2=COCCO2)c2ccccc2)c1 (stereo not drawn)	i	-1%
CC1C(=O)N(Cc2cn(CCC3OCCCO3)nn2)CCS(=O)(=O)N1Cc1ccc(-c2ccncc2)cc1 (stereo not drawn)	-28%	-2%
CN(CCc1ccccn1)C(=O)CN(C)S(=O)(=O)c1ccc2c(c1)c(=O)n(C)c(=O)n2C	i	-11%
c1ccc(Cn2c(SCCN3CCOCC3)nnc2-c2cccnc2)cc1	-4%	-3%
Cc1ccc(NC(=O)Cn2cnc3cc([N+](=O)[O-])ccc3c2=O)cc1	-1%	-5%
CCOC(=O)CCSc1nc(N2CCOCC2)c2c(c1C#N)CC(C)(C)OC2	2%	3%
N#Cc1cccc(OC(=O)c2ccc3c(=O)n4c(nc3c2)CCC4)c1	-17%	-11%
O=C(C1CC(=O)N(C2CCCC2)C1)N1CCN(c2cccc(Cl)c2)CC1 (stereo not drawn)	-24%	-11%
CC1SCC(=NOCc2ccccc2)CS1 (stereo not drawn)	i[7.34 µM]	-2%[7.34 µM]
O=C(CCCCl)Oc1ccc2cc(-c3ccc4ccccc4n3)c(=O)oc2c1	-1%	-8%
CCN1CCN(c2ccc(NC(=O)c3cccc(OCc4ccccc4)c3)cc2)CC1	u	u
CCCCNC(=O)C(CC)Sc1nnc(-c2cccc(F)c2)c(-c2cccc(F)c2)n1 (stereo not drawn)	-10%	-7%
CCN(CC)CCCNC(=O)Cn1ncn2cccc2c1=O	-7%	-8%
CCc1nnc(NC(=O)CSc2nnc(-c3ccccc3O)n2-c2ccc(C)cc2)s1	u	u
CC(C)NC(=O)N(C)C[C@H]1OCCCC[C@H](C)Oc2ccc(NS(=O)(=O)c3ccccc3)cc2C(=O)N([C@H](C)CO)C[C@H]1C	i	-9%
Cn1c(=O)oc2cc(S(=O)(=O)N3CCC(C(=O)NCc4ccccc4)CC3)ccc21	-17%&-1%	-9%&-2%
Cc1cccc(CC(=O)NCCc2csc(-c3ccc(C(F)(F)F)cc3)n2)c1	-17%	-22%
Cc1ccc(N(C(C)C(=O)O)S(=O)(=O)c2c(C)n[nH]c2C)cc1 (stereo not drawn)	x	-15%
Cc1ccc(-n2c(C)cc(=O)cc2C)cc1[N+](=O)[O-]	i	0%
Cc1ccc(CNC(=O)c2ccccc2SCC(=O)NCC2CCCCC2)cc1	-25%	-10%
COc1ccc(NC(=O)CN2CCN(CC(=O)Nc3ccccc3Cl)CC2)c(OC)c1	u	-27%
C/C(=N\NC(=O)c1ccc(N)cc1)C1CC1	-1%	-22%
CCC(=O)Nc1ccc(CC)cc1-c1nc2ccccc2n(Cc2ccccc2)c1=O	-16%	-9%
O=C(c1cnsn1)N1CCOc2ccc(C(O)C(c3ccccc3)c3ccccc3)cc2C1 (stereo not drawn)	-11%	-19%
COc1ccc(OC)c(NC(=O)CCC(=O)N(Cc2ccc(OC)c(OC)c2)c2nccs2)c1	i	-4%
O=c1[nH]c(NC2CCCCC2)c([N+](=O)[O-])c(=O)[nH]1	-9%	-12%
O=C(NCCc1ccccc1F)c1cc(COc2ccc(F)cc2F)on1	i	-18%
Cc1csc2nc(COc3ccccc3NC(=O)c3ccc(C(C)(C)C)cc3)cc(=O)n12	-9%	-12%
Cc1oc(-c2cc(F)ccc2F)nc1CN1CCN(C)C(=O)[C@@H]1C	i	-10%
Cc1ccc(CN2CCCN(Cc3c(F)cccc3Cl)S2(=O)=O)cc1	-18%	-21%
COc1ccc(Cc2nnc(-c3cccc(C)c3)o2)cc1OC	-14%	-19%
Oc1ccc(-c2csc(Nc3ncccn3)n2)c(O)c1	u	-4%
Cc1csc(NC(=O)Cn2cnnn2)n1	x	-1%
C=CC[C@@H](Cc1ccc(F)cc1)C(=O)OC[C@@H]1CCCN1C(=O)[C@@H](CC=C)CC(=O)NCCO	i	-12%

# Gathered by group, those above containing a cyano group
SMILES	Vaccinia mCherry	VACV Venus inh
CO/N=C/C(C#N)=C/c1ccc(OC)cc1	i	-4%
COc1ccc(/C=C(\C#N)C(=O)OCC(=O)NCc2ccco2)cc1	-15%	-10%
Cc1cc2c(c(=O)n1C)C(C(C)C)C(C#N)=C(N)O2 (stereo not drawn)	i	-9%
CCOC(=O)CCSc1nc(N2CCOCC2)c2c(c1C#N)CC(C)(C)OC2	2%	3%
N#Cc1cccc(OC(=O)c2ccc3c(=O)n4c(nc3c2)CCC4)c1	-17%	-11%

# Carrying on.
SMILES	Vaccinia mCherry	VACV Venus inh
Cc1ccc(N2C(=O)C3C=NNC3C2=O)cc1 (stereo not drawn)	4%	-1%
C[C@@H]1O[C@H](CCc2cccc(Cl)c2)CC2=C1C(=O)OC(C)(C)O2	23%	0%
COC(=O)c1c(CCl)noc1C(=O)NC(C)C	u	u
CCC(C)NC(=O)CSc1nc2cc3c(cc2c(=O)n1CCCCCC(=O)NCc1ccc2c(c1)OCO2)OCO3 (stereo not drawn)	-8%	-8%
COc1ccc(C(=S)N2CCOCC2)cc1OS(=O)(=O)c1ccc(Br)cc1	-19%	-21%
COc1ccc(CCNc2nncc(=O)[nH]2)cc1OC	-4%	-6%
CN(Cc1ccccc1)C(=O)c1ccc(NC(=O)Cc2ccc(NC(=O)C3CCCN(C(=O)C4CCCCC4)C3)cc2)cc1 (stereo not drawn)	u	u
NC(=O)c1nnn(Cc2cc(Cl)c(C(=O)c3ccc(Cl)cc3)c(Cl)c2)c1N	-28%	-17%
COC(=O)c1ccc2c(=O)sc(N3CCC(C(N)=O)CC3)nc2c1	-13%	-1%
CC1=C(C(=O)Nc2ccccc2)C(c2ccc(O)cc2)N2C(=O)CSC2=N1 (stereo not drawn)	-7%	-10%
COc1ccccc1N1C(=O)c2ccccc2NC1c1ccncc1 (stereo not drawn)	x	-10%
O=C(NC1CCCCCC1)C1CCN(C(=O)c2cccc(Cl)c2)CC1	u	0%
Cc1cccc(Cc2nnc(CCC(=O)N(C)Cc3ccncc3C)o2)c1	3%	6%
Cc1ccc(NC(=S)Nc2ccc3cn[nH]c3c2)cc1	i	-11%
COc1ccccc1N1CCN(c2ccc(N3C(=O)CCC3=O)cc2[N+](=O)[O-])CC1	u	-6%
CCOC(=O)NC(=O)/C(C#N)=C\NNc1ncc(C(F)(F)F)cc1Cl	-11%	-20%
COc1cc(OC)c(NC(=S)Nc2cccc(C)c2)cc1Cl	i	-26%
O=C(NCc1ccc(Cl)cc1)C1CCCN(c2nc3ccccc3n3cccc23)C1 (stereo not drawn)	-10%	-3%
O=C1CSC(c2ccccc2[N+](=O)[O-])N1c1ccc(O)cc1 (stereo not drawn)	u	-14%
